AF4-AF9 inh: MLL-AF4/AF9 protein interaction inhibition; P42568; AlphaScreen, biotin-AF4 peptide binding to FLAG-AF9; inhibition, % at 10 µM; 0.47% of 350,000 active;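 active means every replicate reaching a set inhibition limit, whatever the replicate mean, cut at about 25% in these data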;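 further: 0% = plate neutral control median and 100% = total signal loss; the record names both 10 and 1 µM as test concentration; the first replicate is given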
Target sequence (P42568 whole entry, looked up): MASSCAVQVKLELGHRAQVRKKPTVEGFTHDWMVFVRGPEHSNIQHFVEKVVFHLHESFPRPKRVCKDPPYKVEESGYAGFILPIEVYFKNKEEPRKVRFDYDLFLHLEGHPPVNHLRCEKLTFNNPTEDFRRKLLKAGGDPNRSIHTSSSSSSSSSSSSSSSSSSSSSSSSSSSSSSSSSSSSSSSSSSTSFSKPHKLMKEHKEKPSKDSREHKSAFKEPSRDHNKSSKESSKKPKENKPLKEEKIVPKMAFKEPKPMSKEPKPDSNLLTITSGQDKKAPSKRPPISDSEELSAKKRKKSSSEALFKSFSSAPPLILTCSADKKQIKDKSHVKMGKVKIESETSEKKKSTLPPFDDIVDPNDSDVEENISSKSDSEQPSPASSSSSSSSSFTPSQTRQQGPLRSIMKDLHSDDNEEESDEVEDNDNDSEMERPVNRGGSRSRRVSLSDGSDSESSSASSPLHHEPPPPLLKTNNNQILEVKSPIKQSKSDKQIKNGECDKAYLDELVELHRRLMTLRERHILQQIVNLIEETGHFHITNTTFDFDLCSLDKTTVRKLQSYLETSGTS
rRNA inh HTS: inhibits bacterial ribosomal RNA function over humanized ribosomes; E. coli WT GFP vs humanized-ribosome RFP mutants, fluorescence, 24 h; active compounds read low; DMSO median 0, no signal -100; AID 720706; 1.6% of 350,000 active; GFP signal change (wild-type ribosome), % (no concentration beside the values);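 active means significant combined selectivity score with lowered wild-type GFP, culture density cut under 30%, mutant RFP and density less affected; inactive means any of these conditions unmet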; further: one replicate is shown; some compounds called inactive have numbers as strong as hits
FGF22 binding: shifts melting point of recombinant human FGF22; Q9HCT0; recombinant FGF22 thermal shift, SYPRO orange fluorescence; percent of sucrose octasulfate shift, DMSO zero; calls only at 9.99 µM; 1.5% of 340,000 active;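 active means melting point raised past a set limit in the mean and every replicate; three in four hits are not shown here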
Target sequence (Q9HCT0 whole entry, looked up): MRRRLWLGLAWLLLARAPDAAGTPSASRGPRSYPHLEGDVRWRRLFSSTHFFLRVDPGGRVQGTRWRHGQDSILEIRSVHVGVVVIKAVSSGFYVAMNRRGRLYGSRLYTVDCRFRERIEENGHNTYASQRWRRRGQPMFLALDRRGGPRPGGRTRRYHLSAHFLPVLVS
rRNA inh HTS OD600: further read-out of rRNA inh HTS, marked with its call; OD600 change, %; measured here: OD600 growth;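 optical density of the mix in the first replicate; 0 = DMSO median and -100 = no signal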
rRNA inh HTS RFP: second read-out of rRNA inh HTS, no call of its own (marks repeat the call); RFP signal change, %; measured here: RFP humanized mutant strains;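 first replicate; 0 = DMSO median and -100 = no signal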
Starred values were filed as active, the others as inactive; i = inactive; & = joins results of further samples.

SMILES | AF4-AF9 inh | rRNA inh HTS | rRNA inh HTS OD600 | rRNA inh HTS RFP | FGF22 binding
O=C(Cc1ccncc1)NCC[C@H]1CC[C@@H](NC(=O)Nc2ccc(F)cc2)[C@@H](CO)O1 | -1.8 | 5 | -3 | 2.3 | i
CNC[C@@H]1Oc2ncc(-c3ccc(C)cc3)cc2C(=O)N([C@@H](C)CO)C[C@@H]1C | 4.1 | 11 | 6 | 1.4 | i
COCC#Cc1ccc2c(c1)O[C@H](CN(C)C(=O)C1CC1)[C@@H](C)CN([C@H](C)CO)S2(=O)=O | -3.2 | 2 | -5 | -0.6 | i
C[C@H]1CN([C@@H](C)CO)C(=O)c2cccc(NC(=O)c3cnccn3)c2O[C@@H]1CN(C)Cc1ccc(Oc2ccccc2)cc1 | 7.9 | -3 | -12 | 1.0 | i
CN(C)CC(=O)Nc1ccc2c(c1)[C@H]1C[C@H](CC(=O)NC3CCCCC3)O[C@H](CO)[C@H]1O2 | -0.7 | 7 | 8 | 2.5 | i
CN(Cc1cc(Cl)cc(Cl)c1)[C@H]1C[C@H]2c3[nH]c4ccccc4c3CCN2C(=O)[C@H]1CO | -0.1 | -26 | -47 | 2.4 | i
C[C@@H](O)C#Cc1ccc2c(c1)O[C@@H](CN(C)C(=O)C1CCC1)[C@@H](C)CN([C@@H](C)CO)S2(=O)=O | -14 | 0 | 3 | -1.9 | i
Cc1noc(C)c1S(=O)(=O)Nc1ccc2c(c1)C(=O)N([C@H](C)CO)C[C@H](C)[C@H](CN(C)Cc1ccc(Cl)c(Cl)c1)OCCCC[C@@H](C)O2 | 1.6 | 3 | -4 | -1.2 | i
Cc1ccccc1-c1cnc(C(O)c2ccc(Cl)cc2)[nH]1 (stereo not given) | 5.9 | 7 | 2 | 3.1 | i
COc1ccc2c3c(n(C)c2c1)[C@@H](CO)N(C(=O)c1ccc(F)cc1)CC31CN(C(=O)c2ccc(F)cc2)C1 | -0.7 | -4 | -5 | 3.6 | i
CO[C@H](CN(C)S(=O)(=O)c1ccccc1)[C@@H](C)CN(Cc1ccccc1Cl)[C@H](C)CO | -14 | 2 | 1 | -0.2 | i
CC(C)c1ccc(CC(=O)N2CCC2(C)C(=O)NS(=O)(=O)c2cccc(OC(F)F)c2)cc1 (stereo not given) | -4.3 | -13 | 1 | 1.4 | i
CN1c2ccc(-c3ccc(C#N)cc3)cc2[C@@H]2[C@@H](CCN2C(=O)C2CCCCC2)[C@H]1CO | -5.3 | -7 | -11 | 6.2 | i
COc1cccc(-c2ccc([C@@H]3[C@@H](CO)N4CCCCN(C(=O)c5ccc(F)cc5)C[C@H]34)cc2)c1 | 0.5 | -57 | -72 | -13 | i
CS(=O)(=O)Nc1ccccc1-c1ccc2nccn2c1 | -1.1 | -3 | 3 | -1.7 | i
COc1ccc(C(=O)N2CCCCC2c2cc(C(=O)Nc3ccc(OC)cc3C)no2)cc1 (stereo not given) | -1.8 | -13 | -20 | 5.0 | i
CC1=C(C(=O)N(C)C)CC(CC(=O)NCc2cccs2)C(=O)N1Cc1ccccc1 (stereo not given) | 1.4 | 6 | 10 | 4.1 | i
COC(=O)[C@@H]1[C@@H](CO)[C@@H]2Cn3c(ccc(-c4cccc(F)c4)c3=O)[C@@H]2N1Cc1ccccn1 | -2.3 | -1 | -5 | -1.6 | i
N#CC(=C(O)COC(=O)c1ccc2c(c1)OCCO2)c1nc2ccccc2[nH]1 | 1.5 | -2 | 20 | 6.4 | i
C[C@H](CO)N1C[C@H](C)[C@@H](CN(C)S(=O)(=O)c2ccccc2)Oc2ccc(NC(=O)c3ccncc3)cc2CC1=O | -0.7 | 4 | 7 | 1.3 | i

Three compounds from above, ordered by the value under rRNA inh HTS RFP, high to low.
SMILES | AF4-AF9 inh | rRNA inh HTS | rRNA inh HTS OD600 | rRNA inh HTS RFP | FGF22 binding
COc1ccc2c3c(n(C)c2c1)[C@@H](CO)N(C(=O)c1ccc(F)cc1)CC31CN(C(=O)c2ccc(F)cc2)C1 | -0.7 | -4 | -5 | 3.6 | i
CC(C)c1ccc(CC(=O)N2CCC2(C)C(=O)NS(=O)(=O)c2cccc(OC(F)F)c2)cc1 (stereo not given) | -4.3 | -13 | 1 | 1.4 | i
COCC#Cc1ccc2c(c1)O[C@H](CN(C)C(=O)C1CC1)[C@@H](C)CN([C@H](C)CO)S2(=O)=O | -3.2 | 2 | -5 | -0.6 | i

Remaining list, next part:
SMILES | AF4-AF9 inh | rRNA inh HTS | rRNA inh HTS OD600 | rRNA inh HTS RFP | FGF22 binding
O=C(C[C@@H]1C[C@@H]2c3cc(NC(=O)CC4CC4)ccc3O[C@@H]2[C@H](CO)O1)NCc1ccccc1F | 0.0 | 2 | 10 | -3.6 | i
CCCNC(=O)C[C@H]1CC[C@@H]2[C@H](COc3ccc(NC(=O)CCC)cc3C(=O)N2C)O1 | -0.5 | 1 | 5 | -0.1 | i
CCCC(=O)Nc1ccc2c(c1)OC[C@@H](C)N(CC1CCOCC1)C[C@H](C)[C@@H](OC)CN(C)C2=O | -1.3 | -1 | 5 | -1.1 | i
C[C@@H]1CN([C@H](C)CO)C(=O)c2cc(-c3ccc(F)cc3)cnc2O[C@H]1CN(C)CC1CCCC1 | -6.1 | 8 | 4 | -3.0 | i
O=C(C[C@H]1CC[C@H]2[C@@H](COC[C@H](O)CN2C(=O)c2ccncc2)O1)NCc1cc(F)cc(F)c1 | -16 | 2 | 0 | -2.9 | i
C[C@H](c1ccccc1)N1C[C@H](COCc2ccccc2)Oc2cc(N3CCC[C@H]3C(N)=O)ccc2S1(=O)=O | 1.5 | -4 | 0 | 3.3 | i
COc1cccc(-c2ccc3c(c2)O[C@@H](CN(C)Cc2cccnc2)[C@H](C)CN([C@H](C)CO)S3(=O)=O)c1 | 7.1 | -38 | -56 | -6.7 | i
OC(c1ccc(F)c(F)c1)c1ncc(-c2cccc(F)c2)[nH]1 (stereo not given) | 3.4 | 0 | 12 | 5.2 | i
Cc1ccccc1-c1ccc([C@@H]2[C@@H](CO)N3CCCCN(C(=O)c4cccnc4)C[C@@H]23)cc1 | 4.2 | 3 | -33 | 1.9 | i
C[C@@H]1CN([C@@H](C)CO)C(=O)c2cc(Br)cnc2O[C@H]1CN(C)C(=O)NC1CCCC1 | 1.6&-6.7 | -3 | 3 | -1.7 | i
C[C@@H]1CN([C@@H](C)CO)C(=O)c2cc(NC(=O)Cc3cn(C)c4ccccc34)ccc2O[C@@H]1CN(C)C(=O)NC1CCCCC1 | -2.4 | -1 | -2 | -0.4 | i
C#CCN1C=C(C(=O)OCC)C(C)NS1(=O)=O (stereo not given) | -4.7 | 12 | 12 | 4.1 | i
CCCN1[C@@H]2c3ccc(-c4ccccc4)c(=O)n3C[C@@H]2[C@@H](CO)[C@@H]1C(=O)N[C@@H](C)c1ccccc1 | -3.1 | -4 | -34 | 18 | i
CCC(=O)N1C[C@@H](C)[C@@H](OC)CN(C)C(=O)c2ccc(NC(=O)Nc3ccc(Cl)cc3)cc2OC[C@@H]1C | 5.2 | -3 | -16 | 7.4 | i
O=C(Nc1cc(F)ccc1F)N1CCCCN2[C@H](CO)[C@H](c3ccc(-c4ccncc4)cc3)[C@H]2C1 | 6.8 | 2 | 4 | -3.0 | i
CC(=O)c1sc(NC(=O)CCS(=O)(=O)c2ccc(F)cc2)nc1C | -7.6 | 2 | 3 | 2.0 | i
CCc1nc2ccc(C(=O)N(C)Cc3ccco3)cn2c1N(C)C(=O)Cc1ccccc1 | -0.8 | 6 | 15 | -0.5 | i
O=C(CN1CCOCC1)NCC[C@@H]1CC[C@H](NC(=O)Nc2ccc(F)cc2)[C@@H](CO)O1 | -0.5 | 0 | -1 | -2.9 | i
COC(=O)c1ccc2nc(-c3ccc(C)cc3)c(Cc3ccsc3)n2c1 | -0.7 | 3 | -5 | 1.5 | i
C[C@H]1CN([C@@H](C)CO)C(=O)CCCn2cc(nn2)CO[C@@H]1CN(C)C | -3.0 | 1 | 5 | 2.5 | i

Reformatted with each value named: entries from further up
C[C@H]1CN([C@@H](C)CO)C(=O)c2cccc(NC(=O)c3cnccn3)c2O[C@@H]1CN(C)Cc1ccc(Oc2ccccc2)cc1
  AF4-AF9 inh: 7.9 | rRNA inh HTS: -3 | rRNA inh HTS OD600: -12 | rRNA inh HTS RFP: 1.0 | FGF22 binding: i

CN(C)CC(=O)Nc1ccc2c(c1)[C@H]1C[C@H](CC(=O)NC3CCCCC3)O[C@H](CO)[C@H]1O2
  AF4-AF9 inh: -0.7 | rRNA inh HTS: 7 | rRNA inh HTS OD600: 8 | rRNA inh HTS RFP: 2.5 | FGF22 binding: i

CN(Cc1cc(Cl)cc(Cl)c1)[C@H]1C[C@H]2c3[nH]c4ccccc4c3CCN2C(=O)[C@H]1CO
  AF4-AF9 inh: -0.1 | rRNA inh HTS: -26 | rRNA inh HTS OD600: -47 | rRNA inh HTS RFP: 2.4 | FGF22 binding: i

C[C@@H](O)C#Cc1ccc2c(c1)O[C@@H](CN(C)C(=O)C1CCC1)[C@@H](C)CN([C@@H](C)CO)S2(=O)=O
  AF4-AF9 inh: -14 | rRNA inh HTS: 0 | rRNA inh HTS OD600: 3 | rRNA inh HTS RFP: -1.9 | FGF22 binding: i

Additional structures follow:
SMILES | AF4-AF9 inh | rRNA inh HTS | rRNA inh HTS OD600 | rRNA inh HTS RFP | FGF22 binding
C[C@@H]1CCCCO[C@H](CN(C)Cc2ccc(C(=O)O)cc2)[C@@H](C)CN([C@H](C)CO)C(=O)c2cc(NC(=O)Nc3ccc4c(c3)OCO4)ccc2O1 | -1.8 | 2 | 2 | -2.7 | i
CC(C)NC(=O)N(C)C[C@@H]1OCCCC[C@@H](C)Oc2ccc(NC(=O)Cc3ccccc3)cc2C(=O)N([C@@H](C)CO)C[C@@H]1C | -3.8 | 0 | 18 | -5.7 | i
COc1ccc(C=O)c(OCc2cn(CC(=O)c3ccc(O)cc3)nn2)c1 | -2.7 | -3 | -2 | 1.6 | i
C=CCNc1nc2cc(-c3cccc(Cl)c3)sc2c(=O)n1C | -0.8 | 1 | 6 | 2.1 | i
CCSc1n[nH]c(=O)n1C | 0.8 | 3 | 13 | -1.3 | i
C[C@H]1CN([C@@H](C)CO)C(=O)Cc2cc(NC(=O)Cc3cn(C)c4ccccc34)ccc2O[C@@H]1CN(C)C(=O)Nc1cccc2ccccc12 | -2.2 | -4 | 4 | 0.7 | i
Cc1cccc(Nc2c(O)nc[nH]c2=O)c1 | 3.8 | 19 | 14 | 5.3 | i
COc1ccc(F)cc1-c1cc(C(=O)NC2CCCCC2)[nH]n1 | 0.9 | 1 | -20 | -5.9 | i
CN1C(=O)c2cc(NC(=O)C3CCOCC3)ccc2OC[C@H]2O[C@H](CC(=O)NCCc3ccncc3)CC[C@H]21 | 2.3 | 8 | 16 | 0.3 | i
COCCNC(=O)c1ccc(-c2cn[nH]c2)c2ccoc12 | -1.5 | 14 | 12 | 3.0 | i
C[C@H](CO)N1C[C@H](C)[C@H](CN(C)S(=O)(=O)c2ccc(F)cc2)Oc2ncc(-c3cccc(C(=O)N(C)C)c3)cc2C1=O | -8.0 | -1 | -4 | -2.2 | i
C[C@@H]1CN([C@H](C)CO)C(=O)Cc2cc(NC(=O)Cc3ccccc3)ccc2O[C@@H]1CN(C)S(=O)(=O)c1cccs1 | -4.2 | -8 | -15 | 1.4 | i
O=C(Cc1ccccc1)N[C@H]1CC[C@H](CC(=O)N2CCCCC2)O[C@H]1CO | 2.6 | 2 | 8 | -0.8 | i
CC(C)CNC(=O)C1(C)CCCCCN1C(=O)c1csnn1 (stereo not given) | -1.2 | 7 | 8 | 0.5 | i
C[C@H]1CN([C@@H](C)CO)C(=O)c2cccc(NC(=O)NC3CCCCC3)c2O[C@H]1CN(C)CC1CCCCC1 | -1.2 | 5 | -2 | 0.3 | i
CC(C)NC(=O)Nc1ccc2c(c1)C(=O)N([C@@H](C)CO)C[C@@H](C)[C@H](CN(C)S(=O)(=O)c1ccc(Cl)cc1)O2 | -0.2 | 2 | 13 | 0.7 | i
C[C@@H]1CCCCO[C@H](CN(C)C(=O)Nc2ccc(F)cc2)[C@H](C)CN([C@@H](C)CO)C(=O)c2cc(NS(=O)(=O)c3ccccc3)ccc2O1 | 4.3 | -2 | -4 | -0.6 | i
COc1cc(-c2cc3nc(NCCc4ccncc4)ccn3n2)cc(OC)c1OC | 2.2 | -18* | -4.5* | 1.1* | i
C[C@@H]1CCCCO[C@@H](CN(C)C(=O)Nc2ccccc2)[C@H](C)CN([C@@H](C)CO)C(=O)c2cc(NC(=O)Nc3ccc(F)cc3)ccc2O1 | 0.4 | -1 | -3 | -1.3 | i
COc1ccc(NC(=O)C2(C)Cc3c(-c4ccc(N(C)C)cc4)ccnc3O2)cc1OC (stereo not given) | -0.6 | 5 | 12 | 1.0 | i
C[C@@H]1CN([C@H](C)CO)C(=O)c2cc(C#CC3CCCC3)cnc2O[C@H]1CN(C)C(=O)c1ccncc1 | 0.5 | 3 | -1 | -2.1 | i
COc1ccccc1CNc1nc(NCc2ccc(NC(C)=O)cc2)c2sccc2n1 | -5.9 | -26 | -30 | -4.1 | i
COc1cc(NC(=O)c2ccc(-c3cnn(C)c3)c3ccoc23)cc(OC)c1OC | -1.5 | -4 | 8 | -4.3 | i

Source: PubChem (Broad Institute)

The list is partial (hit frequency here may not be typical).
